BJeLR viability: lowers viability of BJeLR cells; BJeLR fibroblasts viability, CellTiterGlo ATP luminescence, 48 h; HRASV12, hTERT and SV40 LT/ST transformed; viability loss activity score, % (concentration not given with the values); actives 0.64% (n = 30,000); AID 2275; in the data active = viability loss activity score above about 50%; about a fifth of its hits are not listed in these tables;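 note: higher score means fewer live cells and less ATP luminescence; stock transfer was 50 or 100 nL into about 30 µL; 0% = vehicle wells and 100% = a reference killing control; one replicate is shown; the record names a cut of 85%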
A1 inh: A1 inhibition; MEF A1-2A-BIM cells, caspase-Glo luminescence, 3 h; percent of clofoctol signal, DMSO as zero; caspase activation, % (no concentration beside the values); actives 0.51% (n = 21,000);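 active = most replicate scores above 10, or exactly half above 10 with mean activity above 10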;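 note: effector caspase 3 and 7 activity cleaving a DEVD luciferin substrate; 50 nL library stock added to about 30 µL; numbers are from one replicate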
Active calls of the source: *. Some of the compounds tested; count on the stated rates, not on these rows.

SMILES | BJeLR viability | A1 inh
COc1ccccc1OCCNCC(O)COc1cccc2[nH]c3ccccc3c12 (stereo unspecified) | -3.5 | 0.3
Cn1c(=O)c2c(ncn2CCO)n(C)c1=O | 1.2 | -1.4
Cc1cccc(C)c1NC(=O)C1CCCCN1C (stereo unspecified) | 1.4 | 0.4
O=c1cc(-c2ccc(O)cc2)oc2cc(O[C@@H]3O[C@H](CO)[C@@H](O)[C@H](O)[C@H]3O[C@@H]3OC[C@](O)(CO)[C@H]3O)cc(O)c12 | 0.8 | -0.1
C[C@H]1[C@H](C)CC[C@]2(C(=O)O[C@@H]3O[C@H](COC4O[C@H](CO)[C@@H](OC5O[C@@H](C)[C@H](O)[C@@H](O)[C@H]5O)[C@H](O)[C@H]4O)[C@@H](O)[C@H](O)[C@H]3O)CC[C@]3(C)C(=CC[C@@H]4[C@@]5(C)C[C@@H](O)[C@H](O)[C@@](C)(CO)C5CC[C@]43C)[C@H]12 (stereo partly specified) | 2.0 | 0.4
COc1c(O)cc2c(c1O)[C@H]1O[C@H](CO)[C@@H](O)[C@H](O)[C@@H]1OC2=O | -1.1 | 0.4
CCOC(=O)NNc1nncc2ccccc12 | -2.1 | 0.1
Cc1cccc(Nc2cc(Cl)nc(SCC(=O)O)n2)c1C | 2.4 | -0.9
CCC(=O)O[C@]1(C(=O)SCF)[C@H](C)C[C@H]2[C@@H]3C[C@H](F)C4=CC(=O)C=C[C@]4(C)[C@@]3(F)[C@@H](O)C[C@@]21C | -13.3 | 0.8
CCCCCC(=O)O[C@]1(C(C)=O)CCC2C3CCC4=CC(=O)CC[C@]4(C)C3CC[C@@]21C (stereo partly specified) | 0.4 | 0.1
Cc1cc(C)cc(OCC2CNC(=O)O2)c1 (stereo unspecified) | -2.8 | -0.4
CCn1cc(C(=O)O)c(=O)c2cc(F)c(N3CCNCC3)nc21 | -0.8 | 0.1
Nc1c2c(nc3ccccc13)CCCC2O (stereo unspecified) | -2.3 | -0.1

Retrieved by compound from the entries so far (2):
SMILES | BJeLR viability | A1 inh
Cc1cccc(C)c1NC(=O)C1CCCCN1C (stereo unspecified) | 1.4 | 0.4
Cc1cccc(Nc2cc(Cl)nc(SCC(=O)O)n2)c1C | 2.4 | -0.9

Full records as entered above. Order of screens: BJeLR viability, A1 inh
Results for `Nc1c2c(nc3ccccc13)CCCC2O` (stereo unspecified) = -2.3, -0.1
Results for `CCC(=O)O[C@]1(C(=O)SCF)[C@H](C)C[C@H]2[C@@H]3C[C@H](F)C4=CC(=O)C=C[C@]4(C)[C@@]3(F)[C@@H](O)C[C@@]21C` = -13.3, 0.8
Results for `Cc1cc(C)cc(OCC2CNC(=O)O2)c1` (stereo unspecified) = -2.8, -0.4
Results for `O=c1cc(-c2ccc(O)cc2)oc2cc(O[C@@H]3O[C@H](CO)[C@@H](O)[C@H](O)[C@H]3O[C@@H]3OC[C@](O)(CO)[C@H]3O)cc(O)c12` = 0.8, -0.1

Screens as filed in PubChem.
